PD-1 reversal: activators reversing PD-1 mediated T-cell inhibition | 29,000 tested, under 10 active | activation, % (concentration not given with the values) | primary human CD4 T cells, PD-L1 beads, CellTiter-Glo 96 h;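 active = replicate mean of 50% or more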;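 note: 0% = median vehicle wells and 100% = positive control; 100 nL library stock added to about 50 µL; numbers are from one replicate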
MITF inhib: MITF inhibition. TRPM1 promoter luciferase, luminescence, 24 h. inhibition, % (test concentration not listed). 37,000 tested, 0.28% active;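 active = most replicates at 85% or more, or half of them and the mean; inconclusive = half reach 85% but not the mean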;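 note: human melanocyte line stably carrying TRPM1 promoter luciferase reporter; 0% = vehicle wells and 100% = a positive control; the first replicate is given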
Shh pathway inh: Sonic Hedgehog pathway inhibition | Shh-LIGHT2 Gli-luciferase reporter, 30 h | inhibition, % (concentration not given with the values) | 22,000 tested, 2.1% active | AID 2313;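 active = replicate mean of 65% or more; inconclusive = mean lower but half the replicates past it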;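 note: pathway switched on by Shh-conditioned medium diluted 1 in 25 in low serum; 100 nL library stock added to about 40 µL; 0% = median of neutral wells and 100% = positive control level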
YB-1 expression: YB-1 expression inhibition. U2OS, qRT-PCR YB-1 vs CDIP delta delta Cp, 16 h; stronger effect = higher value; zero = DMSO, each unit about twofold. delta delta Cp (YB-1 minus CDIP) (test concentration not listed). 30,000 tested, 0.37% active. AID 434959;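 active = delta delta Cp rounded down to an integer at or above 3, about 3 SD of DMSO wells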;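 note: higher means less YB-1 transcript or more CDIP transcript relative to DMSO; stock transfer was 100 nL into about 100 µL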
Starred values were filed as active, the others as inactive; ? = inconclusive; · = no result given.

SMILES	PD-1 reversal	MITF inhib	Shh pathway inh	YB-1 expression
COc1ccc(S(=O)(=O)N(C)C[C@@H]2Oc3ccc(NC(=O)Nc4ccc5c(c4)OCO5)cc3CC(=O)N([C@@H](C)CO)C[C@@H]2C)cc1	·	43	-11	0.45
Cc1cccc(C)c1NC(=O)CC(C(=O)O)N(C)C (stereo unspecified)	-0.3	6	·	·
CC(C)NC(=O)Nc1cccc2c1O[C@@H](CN(C)Cc1ccc(C(F)(F)F)cc1)[C@H](C)CN([C@H](C)CO)C2=O	-0.8	-1	2	-0.63
C[C@@H]1CN([C@@H](C)CO)C(=O)c2cccc(NS(=O)(=O)c3ccc(F)cc3)c2O[C@@H]1CN(C)C(=O)Nc1ccc(F)cc1	-0.9	-3	-1	-0.61
CNC[C@H]1Oc2ccc(NC(=O)Nc3ccc(C(F)(F)F)cc3)cc2CC(=O)N([C@@H](C)CO)C[C@H]1C	·	1	-4	0.035
C[C@@H]1CN([C@H](C)CO)C(=O)c2cc(NC(=O)CCCN(C)C)ccc2O[C@@H]1CN(C)C(=O)NC1CCCCC1	1.7	3	-10	0.092
C[C@H](CO)N1C[C@H](C)[C@H](CN(C)CC2CCCCC2)Oc2c(NC(=O)Nc3ccc4c(c3)OCO4)cccc2C1=O	0.7	-2	16	-0.21
C[C@@H]1CN([C@H](C)CO)C(=O)Cc2cc(NC(=O)Cc3ccccc3)ccc2O[C@H]1CN(C)Cc1ccncc1	1.2	1	-33	0.063
Cc1ccc(N(C(C)C(=O)Nc2cc(C(F)(F)F)ccc2Cl)S(C)(=O)=O)cc1C (stereo unspecified)	0.4	0	·	·
Cc1ccc(NC(=O)C(C)N(c2ccc(Cl)cc2)S(C)(=O)=O)c(C)c1 (stereo unspecified)	-1.1	-6	·	·
COc1ccc(NC(=O)Nc2cccc3c2O[C@H](CN(C)C)[C@@H](C)CN([C@H](C)CO)C3=O)cc1	0.5	-22	-38	-0.27
O=C(NCCc1c[nH]c2ccccc12)Nc1cccc2ccccc12	0.4	10	·	·
O=C(OCc1nc2ccccc2s1)c1ccc([N+](=O)[O-])cc1	1.5	-11	·	·
O=C(Nc1ccc([N+](=O)[O-])cc1Cl)c1cc(Cl)ccc1O	·	106*	88*	0.039
COc1cc2cc(Oc3ccc4ccc(=O)oc4c3)c(=O)oc2cc1OC1OC(COC(=O)CC(C)(O)CC(=O)O)C(O)C(O)C1O (stereo unspecified)	-0.6	-4	16	1.1
C[C@H](CO)N1C[C@H](C)[C@H](CN(C)CC2CC2)Oc2c(NC(=O)c3nc4ccccc4s3)cccc2C1=O	1.5	3	1	0.51
C[C@H]1CN([C@@H](C)CO)C(=O)Cc2cc(NC(=O)C3CC3)ccc2O[C@@H]1CN(C)S(=O)(=O)c1cccs1	-2.5	-39	-71	0.14
C[C@@H]1CN([C@H](C)CO)C(=O)Cc2cc(NC(=O)CCN3CCOCC3)ccc2O[C@H]1CN(C)Cc1ccc(Cl)c(Cl)c1	·	-12	2	-0.19
CC(C)(Oc1ccc(Cl)cc1)C(=O)Nc1cccc(-c2nc3ncccc3o2)c1	-0.2	28	·	·
Cn1c(SCC(=O)Nc2ccnc3ccccc23)nnc1-c1ccncc1	-0.2	27	·	·

Entries of single compounds, looked up by structure. Screens in order: PD-1 reversal	MITF inhib	Shh pathway inh	YB-1 expression
Profile of C[C@H](CO)N1C[C@H](C)[C@H](CN(C)CC2CC2)Oc2c(NC(=O)c3nc4ccccc4s3)cccc2C1=O → 1.5	3	1	0.51
Profile of C[C@H]1CN([C@@H](C)CO)C(=O)Cc2cc(NC(=O)C3CC3)ccc2O[C@@H]1CN(C)S(=O)(=O)c1cccs1 → -2.5	-39	-71	0.14
Profile of O=C(OCc1nc2ccccc2s1)c1ccc([N+](=O)[O-])cc1 → 1.5	-11	·	·
Profile of O=C(Nc1ccc([N+](=O)[O-])cc1Cl)c1cc(Cl)ccc1O → ·	106*	88*	0.039

The listing continues:
SMILES	PD-1 reversal	MITF inhib	Shh pathway inh	YB-1 expression
C[C@H]1CN([C@@H](C)CO)C(=O)c2cccc(NC(=O)c3nc4ccccc4s3)c2O[C@H]1CN(C)Cc1ccccc1	-0.4	-6	-112	0.21
COc1ccc(-c2cc3ccccc3oc2=O)cc1NC(=O)COc1ccc(C(C)(C)C)cc1	3.1	-5	·	·
C[C@H]1CN([C@@H](C)CO)C(=O)c2cc(NC(=O)CCC(F)(F)F)ccc2O[C@H]1CN(C)Cc1ccc(C(=O)Nc2ccccc2N)cc1	-2.5	5	·	0.12
COc1ccc(S(=O)(=O)N(C)C[C@H]2Oc3ccc(NC(=O)C4CCCCC4)cc3CC(=O)N([C@@H](C)CO)C[C@H]2C)cc1	-5.9	3	?	-0.38
COc1ccc(NC(=O)N(C)C[C@@H]2Oc3ccc(NC(=O)CCC(F)(F)F)cc3CC(=O)N([C@H](C)CO)C[C@@H]2C)cc1	·	11	2	0.27
C[C@H](CO)N1C[C@H](C)[C@H](CN(C)Cc2ccccc2)Oc2c(NC(=O)Nc3ccc(C(F)(F)F)cc3)cccc2C1=O	·	-1	22	0.43
C[C@@H]1CN([C@@H](C)CO)C(=O)c2cc(NC(=O)Nc3ccccc3)ccc2O[C@H]1CN(C)Cc1ccc(Cl)c(Cl)c1	1.0	?	18	0.1
O=C(CSc1nc(-c2ccccc2)c2cc(Cl)ccc2n1)N1N=CCC1c1ccccc1 (stereo unspecified)	-1.0	20	·	·
C[C@@H]1O[C@@H](OC2C(O[C@H]3[C@H](O[C@H]4CC[C@@]5(C)C(CC[C@]6(C)C5CC=C5C7CC(C)(C)C(O)C(O)[C@]7(C)CC[C@]56C)C4(C)C)O[C@H](C(=O)O)[C@@H](O)[C@@H]3O)OC(CO)C(O)C2O)[C@H](O)[C@H](O)[C@H]1OC1OCC(O)C(O)C1O (stereo partly specified)	1.5	-11	8	0.92
CSc1nc(SCC(=O)Nc2cccc(C)c2)c2c3c(sc2n1)CCCC3	0.7	2	·	·
C[C@H](CO)N1C[C@H](C)[C@H](CN(C)C(=O)Nc2ccc3c(c2)OCO3)Oc2ccc(NC(=O)CCN3CCOCC3)cc2C1=O	2.0	-10	·	-0.046
COc1ccc(CCN2C(=O)CSC2=NC2CC2)cc1OC	-0.5	-23	·	0.43
C[C@H]1CN([C@@H](C)CO)C(=O)c2cc(NC(=O)Cn3cnnn3)ccc2O[C@@H]1CN(C)Cc1ccc(C(F)(F)F)cc1	1.3	-4	5	0.34
Cc1cccc(NC(=O)CSc2nsc(SCC(=O)Nc3cccc(C)c3)c2C#N)c1	-3.3	6	10	-0.057
Cc1cc(C(=O)Nc2cccc3c2O[C@H](CN(C)C(=O)Nc2ccc(F)cc2)[C@H](C)CN([C@@H](C)CO)C3=O)n(C)n1	·	-3	28	0.14
CCn1c(SCC(=O)Nc2ccc(C(=O)O)cc2)nnc1-c1ccc(Cl)cc1	-0.7	-7	·	·
COc1ccc(NC(=O)Nc2cccc3c2O[C@H](CN(C)S(=O)(=O)c2ccc(OC)cc2)[C@H](C)CN([C@@H](C)CO)C3=O)cc1	-1.2	3	19	-0.44
COC(=O)c1ccc(NC(=O)CSc2nnc(-c3ccc(NC(C)=O)cc3)n2C)cc1	-1.4	-14	·	·
CN1CCc2ccccc2Cc2[nH]c3ccccc3c2CC1	·	20	18	-0.54
CC1(C)CC(=O)C2=C(C1)Nc1ccccc1N(C(=S)NCc1ccco1)C2c1cccnc1 (stereo unspecified)	0.4	-17	·	·
C[C@@H]1CN([C@H](C)CO)C(=O)c2cccc(NC(=O)C3CCOCC3)c2O[C@H]1CN(C)Cc1ccc(-c2ccccc2)cc1	·	41	-3	0.35
CC(=O)O[C@@H]1C[C@@H](C)[C@](O)(CCC2=CC(=O)OC2)[C@@]2(C)CCCC(C)(C)C12 (stereo partly specified)	-2.9	45	-1	-0.19
COc1ccc(S(=O)(=O)N(C)C[C@@H]2Oc3ccc(NC(=O)C4CC4)cc3C(=O)N([C@H](C)CO)C[C@H]2C)cc1	-2.1	4	·	0.11
C=CCNc1sc(N)c(C#N)c1C(=O)c1ccc(Br)s1	0.0	0	-10	0.33
C[C@@H]1CN([C@H](C)CO)C(=O)c2cccc(NS(=O)(=O)c3cccs3)c2O[C@@H]1CN(C)Cc1ccc2c(c1)OCO2	0.6	-11	-1	0.22
Cc1noc(C)c1S(=O)(=O)N(C)C[C@H]1Oc2ccc(NC(=O)NC3CCCCC3)cc2CC(=O)N([C@@H](C)CO)C[C@H]1C	·	-3	-11	0.11
CC(C)NC(=O)N(C)C[C@H]1Oc2ccc(NS(=O)(=O)c3ccccc3)cc2C(=O)N([C@@H](C)CO)C[C@@H]1C	·	-2	·	0.25
CC1(C)Cc2c(C#N)c(OCC(=O)c3ccc(Cl)cc3)nc(-c3ccco3)c2CO1	0.1	-14	·	·
Cc1c(C)n(C(=O)CSc2nc3ccccc3s2)c2ccccc12	1.0	1	·	-0.084
COC(=O)c1cc(C)sc1NC(=S)Nc1cnn(C)c1C(N)=O	1.3	-12	·	·

Random excerpt: three entries already listed
SMILES	PD-1 reversal	MITF inhib	Shh pathway inh	YB-1 expression
C[C@@H]1CN([C@H](C)CO)C(=O)c2cccc(NC(=O)C3CCOCC3)c2O[C@H]1CN(C)Cc1ccc(-c2ccccc2)cc1	·	41	-3	0.35
COC(=O)c1cc(C)sc1NC(=S)Nc1cnn(C)c1C(N)=O	1.3	-12	·	·
COc1ccc(S(=O)(=O)N(C)C[C@@H]2Oc3ccc(NC(=O)C4CC4)cc3C(=O)N([C@H](C)CO)C[C@H]2C)cc1	-2.1	4	·	0.11

More structures:
SMILES	PD-1 reversal	MITF inhib	Shh pathway inh	YB-1 expression
Cc1cc(Br)ccc1NC(=O)CCCN1C(=O)c2ccccc2C1=O	2.1	-9	·	·
COc1ccc(S(=O)(=O)Nc2cccc3c2O[C@H](CN(C)S(=O)(=O)c2ccc(Cl)cc2)[C@@H](C)CN([C@H](C)CO)C3=O)cc1	0.0	5	25	-0.38
COC(=O)C1=C(NC(=O)c2cccc(Cl)c2)CCS1	-0.3	14	-27	-0.31
C[C@H]1CN([C@@H](C)CO)C(=O)c2cc(NS(=O)(=O)c3ccccc3)ccc2O[C@H]1CN(C)S(=O)(=O)c1ccccc1	-5.3	1	19	0.34
COc1ccc(NC(=O)Nc2ccc3c(c2)CC(=O)N([C@@H](C)CO)C[C@H](C)[C@H](CN(C)S(=O)(=O)c2c(C)noc2C)O3)cc1	-0.6	-10	0	-0.57
Cc1ccc(S(=O)(=O)Nc2ccc3c(c2)C(=O)N([C@H](C)CO)C[C@@H](C)[C@@H](CN(C)C)O3)cc1	1.0	-9	·	0.45
COc1ccc(NC(=O)N(C)C[C@H]2Oc3ccc(NC(=O)Nc4c(C)noc4C)cc3CC(=O)N([C@@H](C)CO)C[C@@H]2C)cc1	-0.9	-6	·	-0.18
C[C@@H]1CN([C@@H](C)CO)C(=O)c2cccc(N(C)C)c2O[C@H]1CN(C)Cc1ccc(C(F)(F)F)cc1	-6.1	8	-20	0.086
COc1cc(OC2OC(COC3OCC(O)(CO)C3O)C(O)C(O)C2O)c2c(-c3ccc(O)c(O)c3)cc(=O)oc2c1 (stereo unspecified)	-1.1	-2	-44	-0.64
C[C@H]1CN([C@@H](C)CO)C(=O)c2cc(NC(=O)C3CCCCC3)ccc2O[C@@H]1CN(C)Cc1ccc2c(c1)OCO2	0.5	5	21	0.39
C[C@@H]1CN([C@H](C)CO)C(=O)Cc2cc(NC(=O)Nc3ccc(C(F)(F)F)cc3)ccc2O[C@H]1CN(C)Cc1ccc(-c2ccccc2)cc1	-5.7	-12	-14	0.21
Cc1ccc(C(=O)O)cc1S(=O)(=O)NCC1CCCO1 (stereo unspecified)	-0.8	-1	·	·
CNC[C@@H]1Oc2ccc(NC(=O)NC(C)C)cc2CC(=O)N([C@H](C)CO)C[C@H]1C	3.0	0	-26	0.12
CSCC1OC(n2cnc3c(=O)[nH]cnc32)C(O)C1O (stereo unspecified)	·	·	-11	-0.67
O=C(Nc1ccc(Cl)cc1)NC(Cc1ccccc1)C(=O)O (stereo unspecified)	-0.4	-3	·	·
Clc1ccc(-c2cn3c4ccccc4nc3n2CCN2CCOCC2)cc1	-3.9	23	·	·
CCCn1nnc(NC(=O)COc2ccc(C)cc2C)n1	2.8	-5	·	·
CC(C)NC(=O)N(C)C[C@H]1Oc2ccc(NC(=O)C3CCCCC3)cc2C(=O)N([C@H](C)CO)C[C@@H]1C	-2.4	-5	-40	0.65
C[C@@H]1CN([C@@H](C)CO)C(=O)c2cc(NC(=O)Cc3ccccc3)ccc2O[C@@H]1CN(C)Cc1ccccc1	·	12	·	-0.11
C[C@@H]1CN([C@H](C)CO)C(=O)Cc2cc(NC(=O)Cc3cn(C)c4ccccc34)ccc2O[C@@H]1CN(C)Cc1ccc2c(c1)OCO2	-1.0	12	14	0.24
C[C@@H]1O[C@@H](O[C@H]2[C@H](Oc3cc(O)c4c(c3)O[C@H](c3ccc(O)cc3)CC4=O)O[C@H](CO)[C@@H](O)[C@@H]2O)[C@H](O)[C@H](O)[C@H]1O	·	-23	-30	-0.049
C[C@H]1CN([C@@H](C)CO)C(=O)c2cccc(NC(=O)c3cnccn3)c2O[C@@H]1CN(C)C	1.7	-4	3	-0.43
C[C@@H]1CN([C@@H](C)CO)C(=O)Cc2cc(NS(C)(=O)=O)ccc2O[C@@H]1CN(C)Cc1ccc(Cl)c(Cl)c1	-3.3	1	14	-0.19

High-throughput results as filed in PubChem.

Some of the compounds tested; count on the stated rates, not on these rows.
